KCNQ2 block: KCNQ2 potassium channel inhibitors, primary screen, cell-based, CHO-K1, FluxOR thallium flux, B-score (AID 2156). 20 min; stronger effect = lower value; only compounds with negative scores are shown here; some inactives read as strong as hits. B-score at 10 µM. actives 1.1% (n = 310,000). Potassium voltage-gated channel subfamily KQT member 2 (Rattus norvegicus), O88943;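 active = fluorescence ratio B-score at most minus 3 library SDs, with starting brightness B-score within 2 library SDs, cut at about -5.5 in these data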
Target sequence (O88943 whole entry, looked up): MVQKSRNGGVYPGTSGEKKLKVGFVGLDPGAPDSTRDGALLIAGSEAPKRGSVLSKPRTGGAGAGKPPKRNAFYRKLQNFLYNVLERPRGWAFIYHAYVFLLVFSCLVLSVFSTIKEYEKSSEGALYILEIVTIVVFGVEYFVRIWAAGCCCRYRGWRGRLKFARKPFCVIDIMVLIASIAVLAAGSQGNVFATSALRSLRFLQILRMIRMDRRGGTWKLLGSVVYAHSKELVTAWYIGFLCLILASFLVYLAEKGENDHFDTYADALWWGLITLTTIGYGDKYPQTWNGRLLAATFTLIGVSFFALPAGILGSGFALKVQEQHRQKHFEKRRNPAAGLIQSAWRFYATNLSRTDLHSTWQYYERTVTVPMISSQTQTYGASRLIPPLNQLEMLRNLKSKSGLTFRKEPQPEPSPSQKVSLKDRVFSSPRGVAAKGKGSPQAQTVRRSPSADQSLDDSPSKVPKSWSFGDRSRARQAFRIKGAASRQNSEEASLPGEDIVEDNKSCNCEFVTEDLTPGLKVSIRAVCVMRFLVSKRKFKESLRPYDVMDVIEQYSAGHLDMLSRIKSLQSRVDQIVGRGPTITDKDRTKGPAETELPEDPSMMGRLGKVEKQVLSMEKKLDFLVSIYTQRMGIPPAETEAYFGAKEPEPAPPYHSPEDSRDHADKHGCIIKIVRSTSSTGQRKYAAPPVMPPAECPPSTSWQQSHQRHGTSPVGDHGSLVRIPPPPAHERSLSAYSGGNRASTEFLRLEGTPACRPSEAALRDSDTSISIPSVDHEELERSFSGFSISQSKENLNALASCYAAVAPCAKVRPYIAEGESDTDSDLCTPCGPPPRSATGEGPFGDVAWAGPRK
KCNQ2 block baseline: further read-out of KCNQ2 block, marked with its call; B-score; measured here: initial fluorescence intensity artifact check;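 brightness before thallium and not channel activity; 0 = typical well and far values either way flag optical interference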
Starred values were filed as active, the others as inactive; i = inactive. These rows are one share of the data; rates above refer to the full screens.

Every second line gives: KCNQ2 block	KCNQ2 block baseline
Cc1cccc(C(=O)N2CCc3cc(-c4nc(NC(=O)CN5CCCC5)sc4C)ccc32)c1
  i	-1.09
Cc1csc(NC(=O)c2nn(C)c(C)c2[N+](=O)[O-])n1
  i	0.53
CC1CCCN(C(=O)CSc2nnc(-c3cccnc3)n2C2CCCCC2)C1 (configuration not stated)
  i	-0.02
Cn1ncc2nnn(-c3ccccc3)c(=O)c21
  i	0.45
COc1ccc(-n2nc3c(c2NC(=O)C2CCCC2)CS(=O)C3)cc1 (configuration not stated)
  i	0.32
CCCC1(C(=O)OCC)NC(c2ccc(N(C)C)cc2)C2C(=O)N(c3ccccc3)C(=O)C21 (configuration not stated)
  i	-0.11
O=C(Nc1cccnc1)c1ccc2nc(-c3ccccc3)c(-c3ccccc3)nc2c1
  i	0.99
Cc1ccc(-n2c(SCC(=O)O)nc3sc4c(c3c2=O)CCCC4)cc1
  i	0.55
CC(NC(=O)c1cc(-c2ccc(Br)cc2)on1)c1ccccc1 (configuration not stated)
  i	0.07
CCN(CC)CCOC(=O)C(Cc1ccco1)Cc1cccc2ccccc12 (configuration not stated)
  i	1.49
CCN1CCCC1Cn1cnc2c([nH]c3ccc(OC)cc32)c1=O (configuration not stated)
  i	0.94
CCCCCCCCCCCCN1C/C(=C\C(=O)OCC)c2ccccc2S1(=O)=O
  i	0.92
CC1CCN(CCCNC(=O)CCc2nnc3n(CCc4ccccc4)c(=O)c4ccccc4n23)CC1
  i	-1.02
CC1CCC(N2CCN(C(=O)c3ccccc3F)CC2)CC1 (configuration not stated)
  i	2.34
CCCN(CCC)Cc1c(C(=O)N/N=C/c2cccs2)nnn1-c1nonc1N
  i	1.12
CCCc1nc(-c2ccc(-c3ccc(F)cc3)cc2)no1
  i	0.06
COC(=O)CSC1=C(C#N)C(c2cccc(OC)c2)CC(=O)N1 (configuration not stated)
  i	0.43
COc1ccc(OC)c2sc(N3CCN(c4ccccc4)CC3)nc12
  i	0.94
Cc1ccccc1/C=C1\SC(=S)N(/N=C/c2cc([N+](=O)[O-])ccc2O)C1=O
  i	-1.23
COc1cccc(C(=O)NCCS(=O)(=O)N2CCC3(CC2)OCCO3)c1
  i	0.3

As entered above:
Under KCNQ2 block baseline, CC1CCCN(C(=O)CSc2nnc(-c3cccnc3)n2C2CCCCC2)C1 (configuration not stated) is entered as -0.02
Under KCNQ2 block baseline, COc1cccc(C(=O)NCCS(=O)(=O)N2CCC3(CC2)OCCO3)c1 is entered as 0.3
Under KCNQ2 block baseline, CCCCCCCCCCCCN1C/C(=C\C(=O)OCC)c2ccccc2S1(=O)=O is entered as 0.92
Under KCNQ2 block baseline, Cc1cccc(C(=O)N2CCc3cc(-c4nc(NC(=O)CN5CCCC5)sc4C)ccc32)c1 is entered as -1.09

Remaining list, next part:
Every second line gives: KCNQ2 block	KCNQ2 block baseline
Nc1c(C(=O)Nc2nc3ccccc3s2)sc2nc(-c3cccs3)ccc12
  i	1.37
Cc1cc(C)c2[nH]c(=O)c(C(c3nnnn3Cc3ccc4c(c3)OCO4)N3CCCCC3)cc2c1 (configuration not stated)
  i	2.6
O=C(Nc1ccccn1)c1cccc(S(=O)(=O)N2CCCCC2)c1
  i	-0.79
Cc1cc2ncc(S(=O)(=O)c3ccccc3)c(N)n2n1
  i	2.47
CCc1cc2c(=O)c(-c3nc4ccccc4n3C)coc2c(CN2CCCC(C)C2)c1O (configuration not stated)
  i	0.92
CCOC(=O)c1cccc(NC(=O)CCc2nc(-c3ccccc3F)no2)c1
  i	-0.07
COc1ccc(C(=O)NCC(=O)N2CCN(c3ccccc3)CC2)cc1
  i	2.2
CCCc1nc(C)c(-c2ccc(OC)c(OC)c2)c(=O)[nH]1
  i	0.16
Cn1c(=O)[nH]c(=O)c2c1ncn2CCN1CCCCC1
  i	-1.15
CCOc1ccc(N2C(=O)CC(NC3CCN(C(=O)c4cccc(Cl)c4)CC3)C2=O)cc1 (configuration not stated)
  i	1.43
COC(=O)c1ccc(CN2C(=O)c3ccccc3S2(=O)=O)cc1
  i	-2.55
COc1cc(-c2nnc(COC(=O)c3cccn3C)o2)cc(OC)c1OC
  i	-1.65
CCOCCCNC(=O)C1CCN(S(=O)(=O)N2CCCCC2)CC1
  i	-0.44
O=C(CNS(=O)(=O)c1ccc(Br)s1)NCc1ccc(F)cc1
  -5.88*	-0.05*
COc1ccc(NC(=O)CN2CCCC(C)C2)c([N+](=O)[O-])c1 (configuration not stated)
  i	1.65
CC(C)Sc1nnc([C@H](C)NC(=O)OC(C)(C)C)o1
  i	2.06
CC1CCCN(CCCNC(=O)c2ccc3c(c2)N(Cc2ccccc2F)C(=O)c2ccccc2S3(=O)=O)C1 (configuration not stated)
  i	0.47
COc1ccc(N2CCN(C(=O)c3ccc4c(Cl)c5c(nc4c3)CCCC5)CC2)cc1
  i	-0.55
O=C1CSC(c2cn(-c3ccccc3)nc2-c2ccccc2)N1Cc1ccco1 (configuration not stated)
  i	-0.1
COC(=O)c1sc2nc(SCc3ccccc3C)n(N)c(=O)c2c1C
  i	-0.81

Structural class, the entries above with an NH in an aromatic ring.
Every second line gives: KCNQ2 block	KCNQ2 block baseline
CCN1CCCC1Cn1cnc2c([nH]c3ccc(OC)cc32)c1=O (configuration not stated)
  i	0.94
Cc1cc(C)c2[nH]c(=O)c(C(c3nnnn3Cc3ccc4c(c3)OCO4)N3CCCCC3)cc2c1 (configuration not stated)
  i	2.6
CCCc1nc(C)c(-c2ccc(OC)c(OC)c2)c(=O)[nH]1
  i	0.16
Cn1c(=O)[nH]c(=O)c2c1ncn2CCN1CCCCC1
  i	-1.15

Back to the main list; the 3 compounds before the break are reprinted first.
Every second line gives: KCNQ2 block	KCNQ2 block baseline
COc1ccc(N2CCN(C(=O)c3ccc4c(Cl)c5c(nc4c3)CCCC5)CC2)cc1
  i	-0.55
O=C1CSC(c2cn(-c3ccccc3)nc2-c2ccccc2)N1Cc1ccco1 (configuration not stated)
  i	-0.1
COC(=O)c1sc2nc(SCc3ccccc3C)n(N)c(=O)c2c1C
  i	-0.81
Cc1ccnc(SCCn2c(N3CCN(Cc4ccccc4)CC3)nc3c2c(=O)[nH]c(=O)n3C)n1
  i	-2.42
CCCc1nc2c(s1)CCc1onc(-c3cccc([N+](=O)[O-])c3)c1-2
  i	-0.87
COc1cccc(SCc2noc(C(=O)NCC3CC3)c2C(=O)NCC2CC2)c1
  i	-0.36
COC(=O)/C=C1\N/C(=N\c2nc(C)cc(C)n2)N(c2ccc(C)cc2)C1=O
  i	-0.95
COc1ccc(-c2cc(=O)oc3cc(OC(C)C(=O)O)ccc23)cc1 (configuration not stated)
  i	-0.22
CS(=O)(=O)N1CCN(c2ccccc2NC(=O)c2ccc3ccccc3c2)CC1
  i	1.59
O=C(NCc1ccccn1)C1CCN(Cc2cnn(-c3ccccc3)c2-n2cccc2)CC1
  i	-0.79
CCN(c1ccccc1)S(=O)(=O)c1ccc(NC(=S)NC(=O)c2cccs2)cc1
  i	0.27
Cc1cccc(N(CC(N)=O)S(C)(=O)=O)c1C
  i	2.1
CN(C)/C=N/NC(=O)c1ccccc1Cl
  i	-0.12
COCCCNC1CS(=O)(=O)CC1O (configuration not stated)
  i	0.9
Cc1ccc(-c2c3c(=O)n(C)c(=O)n(C)c3cn2Cc2ccccn2)cc1
  i	1.21
CCOc1nc(NCCc2ccc(OC)c(OC)c2)nc(N2CCN(c3ccc(OC)cc3)CC2)n1
  i	-0.51
Cc1ccc(OCC(=O)Nc2ccc(N3CCN(C(=O)c4ccco4)CC3)cc2)c(C)c1
  i	2.77
CCOc1ccc(CCNC(=O)c2cccc(S(=O)(=O)N3CC(C)OC(C)C3)c2)cc1OCC (configuration not stated)
  i	-0.33
CCOC(=O)c1ccc(Nc2c(OCC)c(=O)c2=O)cc1
  i	-0.67
C=CCOn1c(=O)c(-c2ccccc2)[n+]([O-])c2ccccc21
  i	1.61
CC(C)(C)N=C1NN=C(c2cc3ccccc3o2)CS1
  i	0.19
Cc1ccc(NC(=S)NC(=O)C2CCCC2)cc1C
  i	0.51
CCc1n[nH]c(=O)n1Cn1c(CC)n[nH]c1=O
  i	0.43
CCOC(=O)c1c(C)[nH]c(C(=O)COC(=O)C2=NNC(=O)CC2)c1C
  i	-1.46
CCOc1ccc(C(Nc2ccc(C)cc2)P2(=O)OCCCO2)cc1 (configuration not stated)
  i	-0.06
Cc1oc2c(O)c(O)ccc2c(=O)c1-c1ccccc1
  i	-0.21
COc1nc(OCC#N)nc(N2CCCCC2)n1
  i	-0.19
O=C(NNc1nc(=O)c2cccnc2s1)c1ccccc1O
  i	-0.25
CC(C)c1ccc(NC(=S)N2CCN(S(=O)(=O)c3ccccc3)CC2)cc1
  i	0.52
CCOC(=O)c1cnc2c(OC)cccc2c1Oc1ccccc1
  i	1.04
CN(C)Cc1ccccc1Sc1ccc(O)cc1O
  i	-0.83
CN(CC(=O)Nc1ccccc1F)S(=O)(=O)c1ccc2c(c1)n(C)c(=O)c(=O)n2C
  i	0.54
Cc1ccc(/C=C/C(=O)Nc2cc(S(=O)(=O)N3CCCCCC3)ccc2OCC(F)(F)F)o1
  i	-0.34
CC1=CC(C)(C)N2C(=O)C3(SCC(=O)N3c3ccc(F)cc3)c3cc(C)cc1c32 (configuration not stated)
  -6.04*	0.32*
O=C(COC(=O)c1ccc(Cl)nc1)c1ccc2c(c1)OCCO2
  i	-0.66
CC(=O)N1CCc2cc(N=NC3=C(O)CCCC3=O)ccc21
  i	-0.14
COc1ccc(CN(C)S(=O)(=O)c2nnc(NC(=O)c3cccc(F)c3)s2)cc1
  i	-0.19
CCOC(=O)/C(C#N)=C/c1c(Oc2cccc(C)c2)nc2c(C)cccn2c1=O
  i	2.3
COc1ccc(C(=O)c2coc3c2C(=O)C(=O)c2ccccc2-3)cc1
  i	-1.97
COCc1nc(-c2ccc(-c3ccccc3)nc2OC)no1
  i	0.14
COc1ccc(/C=C/C(=O)c2ccc[nH]2)c(OC)c1OC
  i	0.85
c1ccc(C2=Nn3c(nnc3-c3ccncc3)SC2)cc1
  i	1.1
COc1ccccc1/C=N/NC(=O)c1csc(C)c1C
  i	-0.76
Cc1cc(C)cc(C(=O)NC(CC(N)=O)c2ccc(NC3CCCCC3)c([N+](=O)[O-])c2)c1 (configuration not stated)
  i	-0.17
CC1CN(C(=O)Nc2ccccc2)c2ccccc2-[n+]2ccsc21 (configuration not stated)
  i	2.36
COc1ccc(N2C(=O)CC(N3CCCC4CCCCC43)C2=O)cc1 (configuration not stated)
  i	1.15
O=C(Nc1ncccc1Cl)c1ccc2c(c1)OCCO2
  i	0.67
COc1ccc(CC(=O)NCCc2ccc(S(N)(=O)=O)cc2)cc1
  i	0.08
CCC1Sc2ccccc2N(CC(=O)NCCC2=CCCCC2)C1=O (configuration not stated)
  i	0.05
CC1CCc2onc(C(=O)O)c2C1 (configuration not stated)
  i	-1.73
COc1ccc(C(C)=O)cc1COC(=O)CNC(=O)c1ccc(F)cc1
  i	0.46
CC(=O)Nc1ccc(S(=O)(=O)NCc2nc(-c3ccccc3)no2)cc1
  i	0.71
CC(=O)c1ccc(OC(C)C)c(CSC(=N)N)c1
  i	-0.85
COC(=O)c1ccc2c(=O)n(CCN3CCOCC3)c(SCC(=O)C(C)(C)C)nc2c1
  i	-0.99
CCOc1ccc(C2=CSC3=NCCN23)cc1
  i	-0.89
COc1ccc(C(=O)NNS(=O)(=O)c2ccc(OC)cc2)cc1
  i	0.04
CC(C)(C)n1nnnc1C(c1cccs1)N(Cc1cccnc1)Cc1ccco1 (configuration not stated)
  i	-0.01
COc1ccc(-c2[nH]ncc2[C@@H]2C[C@H]3CN(Cc4ccccc4C)C(=O)[C@]34CCCN24)cc1
  i	0.54
COc1ccc(-c2c3c(nc4sc(C(=O)Nc5ccccc5)c(N)c24)CCC3)cc1
  i	0.97
CCc1nc(SCC(=O)NCc2ccccc2)c2c(=O)n(C)c(=O)n(C)c2n1
  i	0.86
Cc1cc(N2CCN(S(=O)(=O)c3ccc(Cl)cc3)CC2)c2ccccc2n1
  i	0.9
O=C1Nc2ccccc2N=C(c2ccccc2)C1Br (configuration not stated)
  i	-0.02
CCOc1ccc(S(=O)(=O)N2CCCC(C(=O)Nc3ccccc3)C2)cc1 (configuration not stated)
  i	0.54

Continued.
Every second line gives: KCNQ2 block	KCNQ2 block baseline
Cc1ccc(S(=O)(=O)N(CC(=O)NCC2CCCO2)Cc2ccc(F)cc2)cc1 (configuration not stated)
  i	1.2
C=C1C(=O)O[C@@H]2[C@H]1[C@@H](OC(=O)/C(C)=C/C)C/C(C)=C\C(=O)/C=C(\C)[C@@H]2O
  i	-0.54
CC(C)NC(=O)c1cnc(N2CCN(c3ccccn3)CC2)c2ccccc12
  i	0.12
COC(=O)c1ccsc1NC(=O)C1=COCCO1
  i	0.03
O=C(C[n+]1ccccc1)N1CCCc2ccccc21
  i	-0.11
COc1cc(OC)cc(N(C(=O)c2ccco2)C(C(=O)NC2CCCC2)c2ccc(N(C)C)cc2)c1 (configuration not stated)
  i	0.55
CC1(C)CC(CCNS(=O)(=O)c2ccccc2)(c2ccccc2)CCO1 (configuration not stated)
  i	-0.13
Cc1nn(-c2ccccc2)c(Cl)c1/C=N/NC(=O)c1ccc(CNc2ccccc2)o1
  i	0.72
Cc1[nH]c2ccccc2c1/C=N/NC(=S)NCc1ccccc1
  i	1.47
CC(=O)Nc1ccc(S(=O)(=O)NC2(C(F)(F)F)N=C(c3ccccc3)NC2=O)cc1 (configuration not stated)
  i	0.49
CCC(C(=O)O/N=C(\N)c1ccc(C)cc1)c1ccccc1 (configuration not stated)
  i	-0.93
COC(=O)c1ccc(CC(=O)c2ccc(O)cc2O)o1
  -5.83*	2.95*
CCOc1ccc(OCC)c(NC(=O)CN2CCN(c3cccc(C)c3)C(C)C2)c1 (configuration not stated)
  i	-0.07
CC1CC(C)(C)OC(C[N+]2(C)CCCCC2)O1 (configuration not stated)
  i	-0.11
COc1ccc(C2CC(=O)Oc3c2c(=O)n(C)c2ccccc32)c(OC)c1OC (configuration not stated)
  i	0.5
